# PAD4 inh = PAD4 (human) enzyme inhibition; 330,000 compounds, 0.41% hits; recombinant PAD4, RCA probe fluorescence polarization; inhibition, % at 6.36 µM; AID 485272;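 active = percent inhibition above a cutoff equal to the mean of all tested compounds plus 3 SD, cut at about 15% in these data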;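 note: 0% = PAD4 with RCA probe and DMSO and 100% = probe without PAD4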
# Fam108B inh = counter-screen for RBBP9 inhibitors: inhibitors of mouse Fam108B; recombinant Fam108B, FP-Rh probe fluorescence polarization; inhibition, % at 9.51 µM; 300,000 compounds, 0.33% hits;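 active = inhibition above the screen mean inhibition plus 3 SD, computed separately per campaign, cut at about 18% in these data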;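 note: inhibitors lower polarization as less probe binds the enzyme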
# PAFAH1B2 inh = PAFAH1B2 (human) inhibition; inhibition, % at 3.39 µM; 340,000 compounds, 1.2% hits; recombinant PAFAH1B2, FP-rhodamine activity probe, fluorescence polarization;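 active = inhibition above the mean of all tested compounds plus 3 SD, cut at about 24% in these data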;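 note: 0% = enzyme with DMSO and 100% = wells lacking PAFAH1B2; many of its hits are not listed in these tables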
# GSTO1 inh = GSTO1 inhibition, counter-screen for RBBP9 inhibitors | P78417 | recombinant GSTO1, activity-based probe fluorescence polarization | inhibition, % at 5.96 µM | 300,000 compounds, 1.1% hits;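 active = inhibition above the campaign mean inhibition plus 3 SD, cut at about 35% in these data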;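 note: 0% = GSTO1-1 with DMSO and 100% = wells lacking GSTO1-1 enzyme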
# PAFAH1B3 inh = inhibitors of human PAFAH1B3; Q15102; recombinant PAFAH1B3, FP-rhodamine probe, fluorescence polarization; inhibition, % at 3.39 µM; 340,000 compounds, 0.28% hits;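 active = inhibition above the screen-wide average of all tested compounds plus 3 SD, cut at about 25% in these data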;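 note: 0% = enzyme with DMSO only and 100% = wells lacking PAFAH1B3 protein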
# Target sequence (Q15102 whole entry, looked up): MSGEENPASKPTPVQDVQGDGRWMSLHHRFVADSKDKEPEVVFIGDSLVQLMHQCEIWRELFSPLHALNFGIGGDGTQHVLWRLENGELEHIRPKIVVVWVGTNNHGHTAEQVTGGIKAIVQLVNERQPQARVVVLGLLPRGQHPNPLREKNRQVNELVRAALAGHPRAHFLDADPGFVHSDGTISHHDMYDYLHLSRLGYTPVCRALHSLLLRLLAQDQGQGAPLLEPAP
# pPAFAH FP inh = pPAFAH (human) enzyme inhibition. Q13093. 330,000 compounds, 1.5% hits. inhibition, % at 3.39 µM. recombinant pPAFAH, FP-rhodamine probe fluorescence polarization;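 active = inhibition above the mean inhibition across the screen plus 3 SD, cut at about 25% in these data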;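 note: inhibitors block binding of the rhodamine activity-based probe so polarization drops; 0% = enzyme with DMSO and 100% = wells lacking pPAFAH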
# Target sequence (Q13093 whole entry, looked up): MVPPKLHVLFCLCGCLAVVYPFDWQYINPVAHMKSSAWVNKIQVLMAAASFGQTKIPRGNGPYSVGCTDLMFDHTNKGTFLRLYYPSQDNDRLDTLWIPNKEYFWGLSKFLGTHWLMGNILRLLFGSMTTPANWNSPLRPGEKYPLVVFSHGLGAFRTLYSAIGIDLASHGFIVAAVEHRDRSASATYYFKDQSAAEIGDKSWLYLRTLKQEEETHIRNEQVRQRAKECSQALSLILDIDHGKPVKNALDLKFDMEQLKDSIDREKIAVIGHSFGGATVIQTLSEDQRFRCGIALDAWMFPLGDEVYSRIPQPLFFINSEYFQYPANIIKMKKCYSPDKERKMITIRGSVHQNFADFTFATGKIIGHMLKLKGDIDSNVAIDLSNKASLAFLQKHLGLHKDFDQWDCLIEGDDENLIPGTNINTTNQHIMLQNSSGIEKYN
# PAFAH2 inh = PAFAH2 (human) inhibition; inhibition, % at 3.39 µM; AID 492956; recombinant PAFAH2, FP-rhodamine activity probe, fluorescence polarization; Q99487; 340,000 compounds, 0.99% hits;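 active = inhibition above the mean over all tested compounds plus 3 SD, cut at about 30% in these data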;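 note: inhibitors block probe labeling of enzyme so polarization drops; 0% = enzyme with DMSO and 100% = wells lacking PAFAH2 protein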
# LYPLA1 counter = blocks human lysophospholipase 1, a PME1 counter-screen | 320,000 compounds, 0.16% hits | AID 2174 | inhibition, % at 5.9 µM | recombinant LYPLA1, FP-Rh probe fluorescence polarization;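 active = inhibition above the mean of all tested compounds plus 3 SD, set per campaign, cut at about 14% in these data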;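 note: inhibitors block serine hydrolase probe labeling of LYPLA1 so polarization falls; 0% = enzyme with DMSO and 100% = wells lacking LYPLA1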
# Target sequence (O75608 whole entry, looked up): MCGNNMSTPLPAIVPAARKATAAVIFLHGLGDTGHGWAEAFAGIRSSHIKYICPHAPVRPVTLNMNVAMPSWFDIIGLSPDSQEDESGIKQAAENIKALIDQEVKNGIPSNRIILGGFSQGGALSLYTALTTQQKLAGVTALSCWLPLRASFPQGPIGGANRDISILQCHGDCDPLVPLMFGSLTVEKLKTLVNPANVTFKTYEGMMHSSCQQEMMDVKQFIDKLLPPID
# Starred values were filed as active, the others as inactive; . = not tested or not shown. Only part of the results is shown; count on the stated rates, not on these rows.
SMILES,PAD4 inh,Fam108B inh,PAFAH1B2 inh,GSTO1 inh,PAFAH1B3 inh,pPAFAH FP inh,PAFAH2 inh,LYPLA1 counter
CCN(CC)S(=O)(=O)c1cccc(C(=O)N[C@H](C(=O)OCC(=O)Nc2ccccc2)C(C)C)c1,0,-1,5,0,-10,5,51*,-3
Cn1nc(-c2ccc(Cl)cc2)cc1NC(=O)CCCC(=O)O,0,3,.,-6,.,8,.,0
Cc1c(C)c(C)c(S(=O)(=O)NCCC(=O)N2CCN(Cc3ccc(C#N)cc3)CC2)c(C)c1C,4,.,0,.,9,2,2,0
COc1cc(NC(=O)COc2cccc(OC)c2)cc(OC)c1,2,6,-3,1,2,-2,-6,-7
CCOCCCNC(=O)/C(C#N)=C/c1ccc(-c2ccc(S(=O)(=O)N3CCOCC3)cc2)o1,-4,4,-1,-1,6,2,5,-6
O=C(c1ccccc1F)N1CCCC(c2ccccc2)C1 (stereo unspecified),-5,0,2,3,7,-4,-2,-2
O=C(CCNC(=O)C1CCN(S(=O)(=O)c2ccccc2)CC1)NCc1ccc(Cl)cc1,1,-2,18,-2,7,3,0,-5
CN(CC(=O)NC(c1ccccc1)c1ccccc1)Cc1nc2ccccc2c(=O)[nH]1,-8,-2,5,-9,12,2,-5,-1
COc1ccccc1/C=C\C=N\n1c(-c2ccc(Cl)cc2Cl)n[nH]c1=S,1,1,1,-1,3,23,3,0
CC(C)CCN1CCN(C/C=C/c2ccco2)CC1CCO (stereo unspecified),-2,5,-1,5,9,4,1,5
CCOc1cc(C2C(C#N)=C(N)OC(C)=C2C(C)=O)c(Br)c(Br)c1OC(C)C (stereo unspecified),2,-2,11,12,10,7,5,-5
COC(=O)c1sc(SC)c2c1CC(C)(C)C/C2=N/O,1,-5,-2,7,6,5,-3,-2

# Profiles as entered above.
# Cn1nc(-c2ccc(Cl)cc2)cc1NC(=O)CCCC(=O)O as listed: PAD4 inh: 0; Fam108B inh: 3; PAFAH1B2 inh: .; GSTO1 inh: -6; PAFAH1B3 inh: .; pPAFAH FP inh: 8; PAFAH2 inh: .; LYPLA1 counter: 0
# CC(C)CCN1CCN(C/C=C/c2ccco2)CC1CCO (stereo unspecified) as listed: PAD4 inh: -2; Fam108B inh: 5; PAFAH1B2 inh: -1; GSTO1 inh: 5; PAFAH1B3 inh: 9; pPAFAH FP inh: 4; PAFAH2 inh: 1; LYPLA1 counter: 5
# O=C(CCNC(=O)C1CCN(S(=O)(=O)c2ccccc2)CC1)NCc1ccc(Cl)cc1 as listed: PAD4 inh: 1; Fam108B inh: -2; PAFAH1B2 inh: 18; GSTO1 inh: -2; PAFAH1B3 inh: 7; pPAFAH FP inh: 3; PAFAH2 inh: 0; LYPLA1 counter: -5

# Next section.
SMILES,PAD4 inh,Fam108B inh,PAFAH1B2 inh,GSTO1 inh,PAFAH1B3 inh,pPAFAH FP inh,PAFAH2 inh,LYPLA1 counter
Cc1ccc(NC(=O)NC2=N/C(=C(/C#N)C(=O)N3CCCC3)c3ccccc32)cc1,-3,12,3,4,3,5,-3,3
COc1ccc(OCC(O)Cn2c(Nc3cccc(C)c3)nc3c2c(=O)n(C)c(=O)n3C)cc1 (stereo unspecified),0,-2,4,3,-1,3,-8,-4
CCCCNC(=O)/C(C#N)=C/c1ccc(-c2ccc(S(=O)(=O)N3CCOCC3)cc2)o1,1,-3,3,-1,2,1,-6,-7
NS(=O)(=O)c1ccc(Nc2nc3ccccc3nc2NS(=O)(=O)c2cccc([N+](=O)[O-])c2)cc1,0,13,13,-11,17,31*,4,0
CCOc1ccc(OCCC(=O)OCC(=O)NC(C)c2ccccc2)cc1 (stereo unspecified),-1,2,2,10,2,20,4,-4
Clc1ccccc1-c1nc(-c2ccccc2)n[nH]1,0,-3,-1,-6,0,-1,7,-2
CCCCN(CCCC)CCNC(=O)c1cn(CC)c2ccc(S(=O)(=O)N3CCCC3)cc2c1=O,1,-3,3,6,6,-1,-3,-6
CC(=O)NS(=O)(=O)c1cccnc1Nc1ccc(Cl)cc1,-6,-2,-5,-6,-2,3,0,0
O=C(C1CCN(S(=O)(=O)c2ccc(Cl)cc2)CC1)N1CCN(c2ccccn2)CC1,4,.,16,.,0,9,-4,0
COc1ccc(NC(=O)COC(=O)c2c3c(nc4ccccc24)CCCC3)cc1,-4,4,2,-6,6,0,-6,-4
O=C(Cn1cnc(S(=O)(=O)N2CCCC2)c1)Nc1ccccc1,-2,0,-1,3,8,-1,2,0
Cc1ccc(-c2c(NCCc3ccccc3)c(=O)c2=O)cc1,-4,-1,-1,3,2,5,2,-4

# Single values from above.
# Under Fam108B inh, `CCOc1ccc(OCCC(=O)OCC(=O)NC(C)c2ccccc2)cc1` (stereo unspecified) reads 2
# Under PAFAH1B2 inh, `COc1cc(NC(=O)COc2cccc(OC)c2)cc(OC)c1` reads -3
# Under PAFAH1B2 inh, `Clc1ccccc1-c1nc(-c2ccccc2)n[nH]1` reads -1
# Under GSTO1 inh, `CCOCCCNC(=O)/C(C#N)=C/c1ccc(-c2ccc(S(=O)(=O)N3CCOCC3)cc2)o1` reads -1
# Under PAFAH1B2 inh, `Cc1c(C)c(C)c(S(=O)(=O)NCCC(=O)N2CCN(Cc3ccc(C#N)cc3)CC2)c(C)c1C` reads 0

# (listing goes on)
SMILES,PAD4 inh,Fam108B inh,PAFAH1B2 inh,GSTO1 inh,PAFAH1B3 inh,pPAFAH FP inh,PAFAH2 inh,LYPLA1 counter
O=c1c2ccccc2nc(/C=C/c2c[nH]c3ccccc23)n1-c1ccc([N+](=O)[O-])cc1,-1,-2,-6,5,3,6,-12,4
O=C(Nc1ccccc1)N1C(=O)C2(OCCO2)c2ccccc21,-2,0,5,13,-2,-6,10,0
O=C(CSc1ncnc2c1cnn2-c1ccc(F)cc1)NC1CCCC1,-3,2,1,-2,-4,1,3,3
Cc1cccc(C)c1NC(=O)CSc1nnc(-c2ccco2)n1N,-3,1,4,-2,6,-6,2,2
Cc1ccc(Cl)cc1N1CCN(CC(=O)NC2CCCc3ccccc32)CC1 (stereo unspecified),6,0,4,3,-5,-1,0,-3
O=c1[nH]c(Nc2ccccn2)cc2ccccc12,8,3,2,26,9,9,0,-4
C=CCNC(=O)NC(=O)CSc1nnc(C(F)(F)F)n1C,0,2,4,-1,6,-1,2,-2
O=[N+]([O-])c1c(NCCO)cc(N2CCCCC2)c2nonc12,0,1,6,5,-1,-2,10,3
COc1ccc(C)cc1S(=O)(=O)Nc1cc2c3c(c1)C(C)C(=O)N3CCC2 (stereo unspecified),-3,2,5,8,3,1,5,5
CCN(CC)S(=O)(=O)c1ccc(N2CCOCC2)c(NC(=O)C(C)Oc2ccc(F)cc2)c1 (stereo unspecified),3,.,4,.,-3,10,-2,1
Cc1cc(C)c(NC(=O)C2CCCN2CCOC(=O)c2cccc([N+](=O)[O-])c2)c(C)c1 (stereo unspecified),-14,-2,1,6,3,-3,8,-4
CCC(=O)Nc1nc2ccccc2n1CCN(CC)CC,-1,-4,3,6,-1,3,-3,1
C/C(=N\NC(=O)c1nnn(-c2nonc2N)c1-c1cccs1)c1cccc(O)c1,1,1,5,-7,6,3,4,-4
CCC1(C)Cc2c(sc(NC(=S)NC(=O)c3ccccc3)c2C#N)CO1 (stereo unspecified),-1,1,3,-1,2,5,1,-1
Cc1ccc(C(=O)N2CCCC(c3nc4c(nnn4Cc4ccccc4)c(=O)[nH]3)C2)cc1 (stereo unspecified),0,5,-2,7,-4,3,2,-1
COc1ccc(-c2cc3ccccc3oc2=O)cc1NC(=S)NC(=O)c1ccc2c(c1)OCCO2,-2,-16,-15,0,-24,-5,-3,-7
Cc1ccc(C(=O)N2CCN(Cc3ccc4c(c3)OCO4)CC2)c(Cl)c1,3,-2,-1,5,3,3,3,-4
C=CCSC1=C(C#N)C(c2ccccc2Cl)CC(=O)N1 (stereo unspecified),3,-2,7,-3,5,9,4,1
O=S(=O)(c1cccs1)N1CCC2(CC1)OCCN2S(=O)(=O)c1ccccc1,4,2,13,6,15,2,21,3
O=C(OCC(=O)c1c[nH]c2ccccc12)c1cc(S(=O)(=O)N2CCOCC2)ccc1F,4,.,3,.,14,1,4,-10
CCOc1ccc(S(=O)(=O)N2CCCCC2)cc1NC(=O)CSCc1c(C)noc1C,0,1,3,-3,2,1,2,1
COc1ccc(-c2oc(NC(=O)CSc3ncn[nH]3)c(C#N)c2-c2ccc(OC)cc2)cc1,4,11,9,7,25,18,14,-7
COc1cccc(-c2nc(NCC3CCCO3)c3ccccc3n2)c1O (stereo unspecified),0,3,2,-5,12,16,6,-2
CN1CCN(C(=O)c2cccc(S(=O)(=O)N3CCCCC3)c2)CC1,1,9,-3,11,7,-4,2,0
Cc1ccc(NC(=O)c2c3c(nc4ccccc24)CCC3)cc1,-2,2,3,2,11,2,-2,0
O=C(COC(=O)c1c2c(nc3ccccc13)CCCC2)c1ccc(Br)s1,2,-5,3,22,-12,-8,-9,-10
COC(=O)c1sccc1NC(=O)CSc1ccccc1NS(=O)(=O)c1ccccc1Cl,-2,-1,6,0,7,17,4,-7
COC1(NC(=O)c2ccccc2)C(C)=CC(=O)C=C1C,-5,-5,3,3,11,1,6,-1
Cc1cccc(Nc2nnc(-c3ccc(N4CCOCC4)c([N+](=O)[O-])c3)c3ccccc23)c1,-2,4,3,-3,9,9,7,0
C/C(=N\NC(=O)c1ccccc1[N+](=O)[O-])c1c(O)cc(C)oc1=O,-1,2,-1,3,10,9,-2,-2
Cn1c(=O)c(=O)n(C)c2cc(S(=O)(=O)N3CCCCCC3)ccc21,-1,2,4,8,1,3,1,-1
COc1cc(CN2CCN(C(=O)c3cccc4ccccc34)CC2)cc(OC)c1OC,1,3,4,2,-1,4,-6,0
CCc1ccc2[nH]c(=O)c(C(c3nnnn3CCOC)N3CCN(c4ccccc4)CC3)cc2c1 (stereo unspecified),5,1,-3,0,-1,5,-6,3
O=C(NC1CCCCCC1)C1CCN(S(=O)(=O)c2ccc(F)cc2)CC1,-1,-2,0,0,0,3,1,-3
Cc1ccccc1NS(=O)(=O)c1ccc(C(=O)N2CCCC2)cc1,-2,-5,4,-3,-2,21,0,1
Cc1ccc(S(=O)(=O)Nc2cccc3cccnc23)c([N+](=O)[O-])c1,2,-4,4,3,-2,10,7,0

# Arranged by SMILES length (largest number first): part of the list above
SMILES,PAD4 inh,Fam108B inh,PAFAH1B2 inh,GSTO1 inh,PAFAH1B3 inh,pPAFAH FP inh,PAFAH2 inh,LYPLA1 counter
CCc1ccc2[nH]c(=O)c(C(c3nnnn3CCOC)N3CCN(c4ccccc4)CC3)cc2c1 (stereo unspecified),5,1,-3,0,-1,5,-6,3
Cn1c(=O)c(=O)n(C)c2cc(S(=O)(=O)N3CCCCCC3)ccc21,-1,2,4,8,1,3,1,-1
COC1(NC(=O)c2ccccc2)C(C)=CC(=O)C=C1C,-5,-5,3,3,11,1,6,-1

# Continued.
SMILES,PAD4 inh,Fam108B inh,PAFAH1B2 inh,GSTO1 inh,PAFAH1B3 inh,pPAFAH FP inh,PAFAH2 inh,LYPLA1 counter
COc1cccc2cc(-c3nc4ccccc4[nH]3)c(=O)oc12,3,-7,1,-2,5,7,-2,0
COc1cc(CC(=O)O)c(C(C)=O)cc1OC,1,-1,0,2,1,8,-4,-4
COc1ccc(NC(=O)COC(=O)c2c3c(nc4ccccc24)CCCC3)cc1Cl,5,-28,-8,-14,-6,-15,-71,-27
Cc1ccc(S(=O)(=O)N2CCOCC2)cc1C(=O)NC1CCSc2ccccc21 (stereo unspecified),4,-1,1,3,6,0,8,1
